E coli growth: inhibitors of Escherichia coli growth; 330,000 tested, 0.21% active; OD600, 23 h; stronger effect = lower value; AID 1053175; OD600 absorbance (test concentration not listed);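 active means OD600 absorbance below the run mean of sample wells minus 3.6 SD, in any replicate, cut at about 0.56 in these data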;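 further: stock transfer was 300 nL into about 60 µL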
UCH37 inh: inhibitors of human deubiquitinating enzyme UCH37. Q9Y5K5. purified proteasome/UCH37, Ub-AMC cleavage fluorescence. inhibition, % (no concentration beside the values). 330,000 tested, 0.33% active. AID 588478;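 active means mean of two replicates above 20%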;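 further: 0% = compound-free wells with enzyme and 100% = wells lacking proteasome; stock transfer was 100 nL into about 20 µL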
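system = Proteasome-associated human UCH37 deubiquitinase | amount = 0.15 nM proteasome as dispensed | medium = pH 7.4 Tris-HCl (50 mM) with ovalbumin, ATP-MgCl2, DTT | incubation = 30 min preincubation with enzyme, 25 min cleavage at room temperature | detection = AMC fluorescence 355/460 nm | read-out basis = percent inhibition | controls = no-proteasome and no-compound wells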
B2AR ag: agonists of human beta-2 adrenergic receptor inducing internalization | P07550 | Am2.2-beta2AR cells, FAP receptor internalization, flow cytometry; reference of the scale not given here | response, % (test concentration not listed) | 340,000 tested, 0.43% active | AID 504454;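 active means response above a set limit, near 3 SD of response in nonfluorescent compounds, cut at about 42% in these data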;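 further: stock transfer was 100 nL into about 11 µL; a reference agonist was the positive control; negative values mostly stem from fluorescent compounds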
ALR H2O2 inh: blocks human ALR sulfhydryl oxidase activity. inhibition, % (no concentration beside the values). 290,000 tested, 3.8% active. P55789. purified ALR, DTT oxidation, H2O2 HRP-luminol luminescence. AID 485317;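 active means mean and each replicate at 75% or more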;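 further: stock transfer was 7.5 nL into about 7.5 µL; 0% = neutral wells and 100% = wells with inactivated enzyme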
HNF4A DNA FP: change in binding of human HNF4 alpha to DNA | activity change, % at 10 µM | P41235 | AID 1224865 | HNF4a-FITC DNA binding, fluorescence polarization, 1 h | 360,000 tested, 0.3% active; in the data active means activity change above about 30%, passing the limit was not always enough;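 further: controls were the assay level and a saturating level of protein; the project sought stronger binding though the title names inhibitors; some compounds called inactive have numbers as strong as hits; positive values seem to mean higher polarization but the record does not say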
FGF22 binding: FGF22 (human) thermal shift binding; 340,000 tested, 1.5% active; Q9HCT0; recombinant FGF22 thermal shift, SYPRO orange fluorescence; percent of sucrose octasulfate shift, DMSO zero; calls only at 9.99 µM;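 active means melting point raised past a set limit in the mean and every replicate; three in four hits are not shown here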
LANA-H2B inh: blocks KSHV LANA binding to histone H2A/H2B. Q9QR71. cell-free LANA-H2A/H2B peptide, fluorescence polarization. inhibition, % (concentration not given with the values). 320,000 tested, 0.6% active. AID 2629; in the data active means inhibition mostly above about 10%, no sharp cut-off; inactive means mostly below about 6.7%;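 further: stock transfer was 7.5 nL into about 10 µL; 0% = median of vehicle wells and 100% = median of positive control wells; one replicate is shown; the record names a cut of 25% in any replicate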
Target sequence (Q9QR71 whole entry, looked up): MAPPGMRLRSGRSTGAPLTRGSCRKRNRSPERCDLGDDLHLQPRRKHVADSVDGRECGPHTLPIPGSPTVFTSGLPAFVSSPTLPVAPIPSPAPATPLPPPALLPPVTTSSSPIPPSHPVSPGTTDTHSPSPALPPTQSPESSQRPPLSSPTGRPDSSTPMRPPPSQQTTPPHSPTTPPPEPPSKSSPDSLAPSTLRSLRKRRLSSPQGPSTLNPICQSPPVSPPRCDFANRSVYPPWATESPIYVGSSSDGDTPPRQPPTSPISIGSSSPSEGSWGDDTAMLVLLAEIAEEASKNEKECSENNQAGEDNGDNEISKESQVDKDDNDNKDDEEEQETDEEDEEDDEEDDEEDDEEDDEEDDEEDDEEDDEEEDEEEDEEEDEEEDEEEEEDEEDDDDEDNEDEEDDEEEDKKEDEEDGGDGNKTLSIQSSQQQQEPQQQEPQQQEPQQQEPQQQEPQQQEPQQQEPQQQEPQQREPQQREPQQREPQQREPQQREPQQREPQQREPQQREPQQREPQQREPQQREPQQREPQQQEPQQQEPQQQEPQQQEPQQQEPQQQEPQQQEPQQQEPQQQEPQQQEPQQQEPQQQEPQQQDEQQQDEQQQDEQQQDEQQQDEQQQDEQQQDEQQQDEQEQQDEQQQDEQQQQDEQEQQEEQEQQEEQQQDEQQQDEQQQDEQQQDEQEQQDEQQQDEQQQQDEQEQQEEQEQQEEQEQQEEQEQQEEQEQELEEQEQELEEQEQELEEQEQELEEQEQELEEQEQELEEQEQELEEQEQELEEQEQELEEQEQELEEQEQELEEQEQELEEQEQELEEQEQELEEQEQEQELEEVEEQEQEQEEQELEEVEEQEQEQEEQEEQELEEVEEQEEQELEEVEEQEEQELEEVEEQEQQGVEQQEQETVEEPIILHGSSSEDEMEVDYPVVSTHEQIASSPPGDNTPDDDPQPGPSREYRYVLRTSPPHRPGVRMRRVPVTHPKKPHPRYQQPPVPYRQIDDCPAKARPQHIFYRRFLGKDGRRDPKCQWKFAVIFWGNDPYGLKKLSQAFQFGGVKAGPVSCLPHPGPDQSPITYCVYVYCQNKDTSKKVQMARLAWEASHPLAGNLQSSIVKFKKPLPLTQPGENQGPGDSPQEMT
Starred values were filed as active, the others as inactive; i = inactive; . = not tested or not shown. An excerpt. The share of hits here may be higher or lower than overall.

E coli growth,UCH37 inh,B2AR ag,ALR H2O2 inh,HNF4A DNA FP,FGF22 binding,LANA-H2B inh,SMILES
0.694,-13.2,.,4.8,.,.,1.7,COc1ccc2[nH]c(=O)c(CN(Cc3cccs3)C(=S)Nc3ccccc3)cc2c1
0.693,1.4,-0.4,16.6,3.3,.,-0.1,CC(=O)Nc1ccc(S(=O)(=O)N(C)CC(=O)Nc2cccc(S(=O)(=O)N3CCCC3)c2)cc1
0.689,1.8,-2.8,0.5,2.6,.,-1.8,O=C(NCCc1ccncc1)C(F)(F)F
0.709,-1.7,1.5,-8.4,-3.1,i,5.6,O=C(Cc1c[nH]c2ccccc12)NCc1ccccc1F
0.694,1.6,41.3,0.5,-0.1,i,-3.9,CCc1ccc(OCC(=O)N2CCc3ccccc32)cc1
0.748,1.3,-11.4,-2.3,3.3,.,3.0,CCN(CC(=O)N1CCc2ccccc2C1)S(=O)(=O)c1ccc2ccccc2c1
0.694,0.9,-2.7,.,-3.3,i,2.5,CN(C)CC(c1ccccc1)c1ccccc1
0.685,4.5,3.6,2.8,4.6,.,-1.2,O=C(NC1CCCCC1)N1CCCC(c2nc3ccccc3[nH]2)C1 (stereo unspecified)
0.692,1.7,-0.1,7.6,2.0,.,1.2,Cc1ccc(S(=O)(=O)Oc2ccc(/C=C(/NC(=O)c3ccccc3)C(=O)NCC(=O)O)cc2)cc1
0.748,3.2,-2.4,.,1.4,i,.,CSc1cccc(NC(=O)NCc2cccc(CNC(=O)Nc3cccc(SC)c3)c2)c1
0.727,1.3,-6.6,-5.4,-3.3,.,-3.1,COc1ccc(C2(C(=O)NC3CCCCC3)CCOCC2)cc1OC
0.677,1.6,0.2,.,2.4,i,2.1,Cc1cc(Cl)ccc1C(=O)C1CCCN(C(=O)CCn2cnnn2)C1 (stereo unspecified)
0.661,4.3,1.9,-27.7,-0.4,i,4.5,CCOc1ccc(S(=O)(=O)Nc2ccc(C(=O)NCC3(N4CCCCC4)CCCCC3)cc2)cc1
0.679,-2.6,6.2,-5.5,0.2,.,-5.3,CCN(c1ccccc1)S(=O)(=O)c1ccc2[nH]cc(C(=O)NCCOC)c(=O)c2c1
.,.,-2.0,-5.8,-1.1,i,-1.0,COc1cc(/C=N/NC(=O)CN2CCOCC2)ccc1OCc1ccccc1
.,.,9.9,2.2,2.3,i,3.1,CC(C)NC(=S)NC(c1ccccc1)(c1ccccc1)c1ccccc1
0.644,-1.0,6.5,-0.9,0.3,i,-8.2,O=C(c1cccc(S(=O)(=O)N2CCCC2)c1)N(Cc1ccco1)C1CCS(=O)(=O)C1 (stereo unspecified)
0.676,5.2,-2.1,-0.9,-1.1,.,-6.4,CN1CC(c2ccccn2)C2(SC(=S)N(Cc3ccccc3)C2=O)C12C(=O)Nc1ccccc12 (stereo unspecified)
0.705,7.5,6.5,-6.9,0.5,.,1.0,Cc1cc(C)c(S(=O)(=O)N2CCN(c3ccc([N+](=O)[O-])c(-n4nc(C)cc4C)c3)CC2)c(C)c1
0.689,-1.9,2.9,-1.1,-0.7,i,1.5,CN(Cc1ccc(OC(F)F)cc1)Cc1nc2c(Br)cc(Br)cc2c(=O)[nH]1
0.725,-2.3,-1.9,.,1.5,i,0.9,CCCOc1ccc(C(=O)NCC2OCCc3ccccc32)cc1OC (stereo unspecified)
0.653,-2.1,10.5,-20.0,36.6*,i,-5.7,CCCCCN(C(=O)CN1CCC(Cc2ccccc2)CC1)c1c(N)n(CCCC)c(=O)[nH]c1=O
.,.,-6.5,0.4,1.0,i,1.6,COc1ccc(-n2c(SCC(=O)NCc3cccs3)nc3[nH]ncc3c2=O)cc1
0.727,1.0,-0.3,-5.6,-2.5,.,1.8,CCN(CC)CCNC(=O)C(C(=O)c1ccccc1)n1ccccc1=O (stereo unspecified)
0.696,-2.5,-2.0,-4.7,-0.1,i,5.8,c1cncc(CNc2ncnc3ccc(-c4ccoc4)cc23)c1
0.661,1.4,3.0,23.2,4.4,i,-4.5,Oc1c(Cl)cc(Cl)cc1C=Nc1ccc(N2CCOCC2)cc1
0.671,6.0,2.4,.,-1.9,i,.,COc1ccccc1-n1c(SC)nc2c(sc(=S)n2-c2ccccc2)c1=O
0.672,2.7,3.0,3.5,-1.9,i,3.2,Cc1ccc(C(=O)NCCONC(=O)c2ccc(C)cc2)cc1
0.708,i,-13.6,-16.8,-2.4,i,-0.9,COc1ccc2cc(C(=O)C3CCCN(C(=O)CSc4nnc(C)o4)C3)ccc2c1 (stereo unspecified)
0.66,5.2,2.8,63.1,0.9,i,1.0,CCN1CCN(C(=O)c2ccc(S(=O)(=O)Nc3ccccc3)cc2)CC1
0.683,-1.3,-4.2,-4.3,-0.8,.,1.6,COc1ccc(-n2nnnc2SCC(=O)NCCc2ccc(OC)c(OC)c2)cc1
0.723,0.4,12.0,-2.1,0.6,.,2.2,O=C(Nc1ccc(F)cc1)NC1(C(=O)NCc2ccc3c(c2)OCO3)CCCCC1
0.661,2.7,-4.9,-13.2,0.3,.,3.2,COc1ccc(C2N(c3ccc(OC)cc3)C(=S)N3CCCN23)cc1 (stereo unspecified)
0.7,0.9,-2.6,.,-3.1,i,-0.1,O=C(c1ccc(COc2ccc3c(c2)CCC3)o1)N1CCN(c2ccccc2)CC1
0.706,5.3,3.3,.,-0.1,.,-2.1,CCOC(=O)c1ccc(CSc2nnc(-c3ccncc3)n2N)cc1
0.653,2.0,1.8,-0.9,1.1,i,-0.4,Cc1ccc2nc(Cl)c(-c3ccccc3)cc2c1
0.677,0.8,-2.2,.,0.8,i,.,CC(OC(=O)c1ccc(Br)o1)C(=O)Nc1ccc2c(c1)OCCO2 (stereo unspecified)
0.698,-1.2,-10.2,96.8*,3.2,.,1.6,CC(C)COn1c(=S)[nH]c2ccccc2c1=O
0.643,1.2,3.8,-6.6,1.1,.,-3.5,O=C(Oc1ccccc1)c1ccc(-n2cnnn2)cc1
0.743,3.1,-1.7,-6.3,3.2,.,0.6,CCCCCC1CCC(C(=O)NNC(=S)NCC)CC1 (stereo unspecified)
0.72,-293.0,-4.5,0.3,2.4,i,4.4,COc1cc(C=Nc2ccccc2C(=O)Nc2ccccc2)cc(OC)c1OC
0.71,-1.7,-9.4,70.4,1.3,i,-1.6,CCc1ccc(Nc2n[n+](-c3ccccc3)c(-c3ccc(C(=O)O)cc3)s2)cc1
0.68,-0.2,10.8,-9.8,-0.1,i,4.9,c1coc(CNc2ncnc3nc[nH]c23)c1
0.66,2.0,-3.4,.,-0.8,.,.,O=C(NC(=O)c1ccc(Cl)cc1)OC1CCCCC1
0.664,1.0,3.9,-2.0,-0.3,i,0.9,Cc1ccc(NS(=O)(=O)c2ccc3c(c2)NC(=O)CCS3)cc1F

4 of the compounds above, as labelled records:
CCN(c1ccccc1)S(=O)(=O)c1ccc2[nH]cc(C(=O)NCCOC)c(=O)c2c1
  E coli growth: 0.679	UCH37 inh: -2.6	B2AR ag: 6.2	ALR H2O2 inh: -5.5	HNF4A DNA FP: 0.2	FGF22 binding: .	LANA-H2B inh: -5.3

COc1cc(/C=N/NC(=O)CN2CCOCC2)ccc1OCc1ccccc1
  E coli growth: .	UCH37 inh: .	B2AR ag: -2.0	ALR H2O2 inh: -5.8	HNF4A DNA FP: -1.1	FGF22 binding: i	LANA-H2B inh: -1.0

CC(C)NC(=S)NC(c1ccccc1)(c1ccccc1)c1ccccc1
  E coli growth: .	UCH37 inh: .	B2AR ag: 9.9	ALR H2O2 inh: 2.2	HNF4A DNA FP: 2.3	FGF22 binding: i	LANA-H2B inh: 3.1

O=C(c1cccc(S(=O)(=O)N2CCCC2)c1)N(Cc1ccco1)C1CCS(=O)(=O)C1 (stereo unspecified)
  E coli growth: 0.644	UCH37 inh: -1.0	B2AR ag: 6.5	ALR H2O2 inh: -0.9	HNF4A DNA FP: 0.3	FGF22 binding: i	LANA-H2B inh: -8.2

(continued)
E coli growth,UCH37 inh,B2AR ag,ALR H2O2 inh,HNF4A DNA FP,FGF22 binding,LANA-H2B inh,SMILES
0.699,6.3,-3.9,.,-4.6,i,-3.2,COc1ccccc1OCCCC(=O)Nc1ccc(N2CCOCC2)cc1
0.683,-120.6,0.2,97.7*,1.1,i,-20.5,CC[C@@H](C)[C@H](NC(=O)Cc1c(C)c2cc3c(C)coc3c(C)c2oc1=O)C(=O)O
0.706,-1.0,3.9,15.2,-0.5,.,-2.9,COc1ccc(Cl)cc1-n1c(C)cc(C(=O)O)c1C
0.631,1.2,-2.8,5.4,1.6,i,-2.2,c1ccc(N2CCN(Cc3ccc4c(c3)OCO4)CC2)nc1
0.713,3.2,8.3,-14.1,-2.1,i,2.2,CC(C)n1ncc2c(C(=O)Nc3ccc(CC#N)cc3)cc(C3CC3)nc21
0.715,-31.5,-2.9,-6.8,15.1,i,-2.6,COc1ccc(C(=O)N2C(=O)c3ccc(N)cc3C2=O)cc1
0.692,-6.9,-2.8,.,-1.3,i,-3.1,CC1(C)CC(=O)C2=C(C1)Nc1ccccc1[S@]2=O
.,.,1.5,.,-4.0,i,2.6,C/C(Cc1ccccc1)=N\NC(=O)CNC(=O)COc1cccc(C)c1
0.666,0.2,8.3,-2.5,3.2,i,-3.0,CNC(=O)N1CCN(C(=O)NC)CC1
0.729,-0.2,-0.2,-6.1,4.0,i,-1.0,Cc1nc2nc[nH]n2c(=O)c1CCOC(=O)c1c(F)cccc1F
0.728,-1.6,-8.4,1.0,2.3,i,-0.8,Cc1noc(C)c1COC(=O)c1ccccc1NC(=O)c1ccco1
0.681,8.4,1.8,24.0,3.8,i,-0.4,Cc1cc(C)c2ccc(=S)[nH]c2n1
0.739,-0.5,-2.5,-25.7,0.8,.,2.5,Cc1ccc(NC(=O)C2CC(=O)OC23CCOC(C)(C)C3)cc1 (stereo unspecified)
0.642,0.2,1.2,-14.5,2.9,i,-3.5,NC(=O)C1(c2ccccc2)CCCN1C(=O)c1ccccc1Br (stereo unspecified)
0.671,-112.9,20.2,-28.3,-4.0,i,-3.1,Cc1cc(OCC(=O)NCc2ccncc2)c2c(C)cc(=O)oc2c1
.,.,7.1,-0.4,-1.4,i,-3.4,O=C(Nc1ccc(F)cc1)c1nc(S(=O)(=O)Cc2ccccc2)ncc1Cl
0.669,-1.9,2.5,-1.8,5.3,i,1.8,CC(NC(=O)c1ccco1)C(=O)OCC(=O)c1ccc(Cl)s1 (stereo unspecified)
0.648,5.9,2.1,41.8,4.7,i,-1.5,O=C(Nc1ccc(F)cc1)c1ccc(CSc2ccc(Cl)cc2)o1
0.618,0.6,-0.8,.,1.2,i,-1.1,COc1cccc(CNC(=O)c2ccc(NC(=O)CC3SC(N4CCCCC4)=NC3=O)cc2)c1 (stereo unspecified)
0.686,7.1,-0.5,8.9,-0.1,i,4.1,O=C(NCc1ccncc1)C1CCN(S(=O)(=O)c2ccc(F)cc2)CC1
0.638,10.0,49.5*,.,2.9,i,-3.3,CC(=O)OCCCNc1cc(Sc2ccc(Cl)cc2)c2nonc2c1[N+](=O)[O-]
0.672,5.2,1.0,3.1,-5.1,.,2.0,O=c1nc(-c2ccccc2)cn[nH]1

Compound activity (PubChem BioAssay)
